Bioassay records from PubChem BioAssay.
UCH37 DUB inh: blocks the human deubiquitinase UCH37 | Q9Y5K5 | purified proteasome/UCH37, Ub-AMC cleavage fluorescence | inhibition, % (test concentration not listed) | actives 0.33% (n = 330,000) | AID 588478;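 active = mean of two replicates above 20%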;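 also: 0% = compound-free wells with enzyme and 100% = wells lacking proteasome; stock transfer was 100 nL into about 20 µL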
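Material: human UCH37 enzyme supplied as purified proteasome complex. Measure: % inhibition of Ub-AMC cleavage fluorescence. Medium: pH 7.4 Tris-HCl (50 mM) with ovalbumin, ATP-MgCl2, DTT. Times: 30 min preincubation with enzyme, 25 min cleavage at room temperature. Detection: AMC fluorescence intensity at 355/460 nm.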
Ecoli growth: inhibitors of Escherichia coli growth; OD600, 23 h; active compounds read low; actives 0.21% (n = 330,000); OD600 absorbance (no concentration beside the values);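 active = OD600 absorbance below the run mean of sample wells minus 3.6 SD, in any replicate, cut at about 0.56 in these data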;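 also: stock transfer was 300 nL into about 60 µL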
A1 inh: inhibitors of the anti-apoptotic protein A1, read as caspase activation; AID 2462; caspase activation, % (no concentration beside the values); actives 0.066% (n = 330,000); MEF A1-2A-BIM cells, Caspase-Glo 3/7 luminescence, 3 h; percent of clofoctol response, vehicle zero;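 active = over half of replicate activation scores above 10%, or exactly half above 10 with the replicate mean above 10; inconclusive = replicate mean below 10 yet half the replicates above 10; inactive = over half of replicates below 10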;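 also: wells of about 30 µL received 50 nL stock; many hits fall short of the cut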
B2AR ag: agonists of human beta-2 adrenergic receptor inducing internalization; AID 504454; Am2.2-beta2AR cells, FAP receptor internalization, flow cytometry; reference of the scale not given here; P07550; response, % (concentration not given with the values); actives 0.43% (n = 340,000);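 active = response above a set limit, near 3 SD of response in nonfluorescent compounds, cut at about 42% in these data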;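 also: stock transfer was 100 nL into about 11 µL; a reference agonist was the positive control; negative values mostly stem from fluorescent compounds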
Target sequence (P07550 whole entry, looked up): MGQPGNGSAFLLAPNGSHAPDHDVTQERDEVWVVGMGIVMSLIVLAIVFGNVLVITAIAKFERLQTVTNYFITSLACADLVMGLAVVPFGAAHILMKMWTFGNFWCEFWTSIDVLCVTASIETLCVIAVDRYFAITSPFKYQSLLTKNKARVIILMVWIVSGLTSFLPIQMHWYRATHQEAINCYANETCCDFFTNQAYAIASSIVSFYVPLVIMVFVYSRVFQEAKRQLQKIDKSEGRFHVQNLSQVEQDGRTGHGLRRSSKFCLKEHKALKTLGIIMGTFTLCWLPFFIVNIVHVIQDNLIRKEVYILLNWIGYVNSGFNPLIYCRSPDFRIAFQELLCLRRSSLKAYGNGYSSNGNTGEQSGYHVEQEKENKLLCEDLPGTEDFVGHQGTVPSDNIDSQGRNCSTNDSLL
HNF4A DNA FP: change in binding of human HNF4 alpha to DNA. P41235. AID 1224865. actives 0.3% (n = 360,000). activity change, % at 10 µM. HNF4a-FITC DNA binding, fluorescence polarization, 1 h; in the data active = activity change above about 30%, passing the limit was not always enough;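 also: controls were the assay level and a saturating level of protein; the project sought stronger binding though the title names inhibitors; some compounds called inactive have numbers as strong as hits; positive values seem to mean higher polarization but the record does not say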
Target sequence (P41235 whole entry, looked up): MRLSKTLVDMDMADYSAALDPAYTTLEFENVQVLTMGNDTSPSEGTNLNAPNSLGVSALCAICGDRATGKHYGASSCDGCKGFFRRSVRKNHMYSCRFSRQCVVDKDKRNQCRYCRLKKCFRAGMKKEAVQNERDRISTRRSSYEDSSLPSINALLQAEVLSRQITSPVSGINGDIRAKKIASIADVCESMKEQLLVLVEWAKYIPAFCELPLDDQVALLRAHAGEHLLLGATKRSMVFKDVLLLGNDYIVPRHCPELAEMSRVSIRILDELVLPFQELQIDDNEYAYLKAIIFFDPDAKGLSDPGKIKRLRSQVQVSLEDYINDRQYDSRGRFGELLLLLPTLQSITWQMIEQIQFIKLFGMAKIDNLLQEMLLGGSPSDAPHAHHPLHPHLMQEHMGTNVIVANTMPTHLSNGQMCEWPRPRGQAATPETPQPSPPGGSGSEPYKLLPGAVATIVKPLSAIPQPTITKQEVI
LANA-H2B inh: blocks KSHV LANA binding to histone H2A/H2B; Q9QR71; cell-free LANA-H2A/H2B peptide, fluorescence polarization; inhibition, % (no concentration beside the values); actives 0.6% (n = 320,000); in the data active = inhibition mostly above about 10%, no sharp cut-off; inactive = mostly below about 6.7%;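 also: stock transfer was 7.5 nL into about 10 µL; 0% = median of vehicle wells and 100% = median of positive control wells; one replicate is shown; the record names a cut of 25% in any replicate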
Vif TR-FRET: HIV-1 Vif–A3G interaction blockers – biochemical, TR-FRET, GST-Vif 1-94, biotin-A3G peptide, dose response retest, primary screen (AID 1117319). inhibition, %; hits with a dose series show IC50 in µM. TR-FRET GST-Vif / biotin-A3G peptide binding; higher % means a stronger effect; test concentration not given here; strong numbers were not always called active. actives 0.57% (n = 260,000);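 active = above the screen mean plus three standard deviations and confirmed in dose response; inconclusive = results disagree or hit not tested in dose response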;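 also: Vif residues 1-94 fused to GST binding biotinylated APOBEC3G peptide 110-148; 0% = full assay without inhibitor and 100% = GST in place of GST-Vif; retest series ran down from 100 µM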
* = called active by the depositor; i = inactive; u = inconclusive; x = no result given; & = joins results of further samples; ! = not confirmed by another sample.

Molecule,UCH37 DUB inh,Ecoli growth,A1 inh,B2AR ag,HNF4A DNA FP,LANA-H2B inh,Vif TR-FRET
CC(C)(C)c1ccc(CNc2cc(N3CCOCC3)ccc2[N+](=O)[O-])cc1,-1.2,0.762,-0.4,-6.7,-0.5,2.2,3.8%
OC1CCN(c2ncnc3nc[nH]c23)CC1,2.3,0.705,0.5,2.1,-1.7,-0.3,2.8%
COc1ccc(/C=N/OC(=O)Nc2ccccc2OC)cc1,x,x,-6.3,-16.7,-1.2,2.0,x
COC(CNC(=O)c1cn(C)c2ccc(S(=O)(=O)N3CCOCC3)cc2c1=O)OC,6.7,0.697,1.5,3.1,1.9,-2.1,x
Cc1cc(NS(=O)(=O)c2ccc(NC(=O)c3ccccc3F)cc2)no1,1.7,0.598,2.0,-1.3,2.4,3.7,x
C/C(=N\NC(=O)COc1ccc(C(C)(C)C)cc1)c1ccc(N2CCOCC2)cc1,x,x,1.1,12.0,0.8,-3.8,8.1%
CCc1nnc(NC(=O)c2ccc(S(=O)(=O)N(C)Cc3ccccc3)cc2)o1,1.3,0.648,0.4,20.6,-0.1,1.3,x
NC(=O)c1cc2ccccc2o/c1=N\NC(=O)c1ccco1,x,x,0.7,-13.1,4.0,2.1,4.8%
CCCn1nc2cc(C(=O)NC3CCc4ccccc43)ccc2c1OCC (stereo not drawn),-26.7,0.691,1.9,6.3,1.2,-3.5,-6.8%
O=Cc1cc(OCc2ccccc2)ccc1[B-](F)(F)F,x,x,x,1.6,-0.6,x,-6.2%
CCCN1CCc2nc(SCC(=O)Nc3ccc(C)c(Cl)c3)[nH]c(=O)c2C1,2.8,0.749,0.5,6.2,7.4,1.0,x
COc1ccccc1NC(=O)c1ccc(NC(=O)CSc2nc(N)cc(=O)[nH]2)cc1,-3.3,0.735,0.0,-6.0,-2.6,-2.1,-8.8%
O=C(O)CCN=C1CCc2ccccc2N1,1.1,0.675,0.3,x,x,-0.2,1.1%
CCCC(=O)N/N=C1\CS(=O)(=O)N(C)c2ccsc21,x,x,-0.7,5.2,-6.1,1.8,-3.7%
COc1ccc(C(CC(=O)O)NC(=O)c2ccco2)cc1 (stereo not drawn),1.6,0.694,0.0,1.5,-1.1,1.5,-0.6%
C/C(N)=C(/C#N)C(=O)COC(=O)CNS(=O)(=O)c1ccc(C)cc1,2.0,0.71,0.9,-7.0,1.9,3.5,5.5%
O=C(O)c1cccnc1Cl,0.2,0.67,0.1,13.4,5.0,-0.4,x
N#Cc1ccccc1NC(=O)COC(=O)CSc1nc2ccccc2o1,3.6,0.733,-0.2,-1.4,2.1,2.6,2.9%
Cc1ccc2c(c1)CCCN2C(=O)NC1CCCCC1,4.3,0.69,1.1,-4.3,1.4,2.2,u
COc1ccc(C(=O)NCC(=O)OCn2nnc3ccccc3c2=O)cc1OC,0.8,0.666,0.1,x,x,-2.5,-3.5%
CNC(=O)CN1C(=O)NC2(CCc3ccccc32)C1=O (stereo not drawn),4.5,0.717,0.2,-2.5,0.2,2.0,75.1%
COc1ccc(-c2csc(CCN3N=C(C)CC3=O)n2)cc1,8.6,0.692,-0.2,7.1,1.7,-0.9,9.8%
COc1ccccc1/C=C1\SC(=O)N(CC(=O)NCCCn2ccnc2)C1=O,-0.6,0.645,-0.4,1.5,5.2,-4.6,-4.0%
O=C1CC(c2ccccc2)=NN1c1nc(-c2ccccc2)cs1,2.3,0.635,-0.2,3.5,3.8,-9.3,-6.8%
OCC[C@H]1C[C@@H](O)[C@H](O)[C@]2(Cc3ccccc3CCO2)O1,-0.7,x,1.0,-8.3,2.6,-1.3,x
O=C(O)/C(=C\c1cccs1)c1ccc(F)cc1,3.7,0.704,0.5,0.2,-2.5,-3.1,u
COC(=O)C(C)N(c1ccc(OC)cc1)S(C)(=O)=O (stereo not drawn),-1.0,0.702,0.1,-7.2,3.3,-0.2,-1.4%
O=C(COC(=O)C1=NN(c2ccccc2)C(=O)CC1)Nc1ccc([N+](=O)[O-])cc1C(F)(F)F,0.8,0.711,0.8,-3.8,5.0,-3.1,-2.8%
Cc1ccc(NC(=O)CSc2nnc3n2CCCCC3)cc1,3.3,0.688,-3.0,0.8,-0.1,0.3,7.9%
N/C(=N\OC(=O)/C=C/c1ccccc1)c1ccc(Cl)cc1,2.4,0.683,0.9,-6.8,3.7,-4.4,9.7%
O=C(O)C1OC(C(=O)O)C2C1C(F)(F)C2(F)F (stereo not drawn),3.6,0.702,0.3,6.9,-3.8,-2.2,9.5%
CCC(C)NCCOCCOc1ccc(Cl)c2ccccc12 (stereo not drawn),5.8,0.6,0.7,31.8,3.0,12.1*,x
O=C(CN1C(=O)NC2(CCOc3ccccc32)C1=O)c1ccc(Cl)cc1 (stereo not drawn),1.1,0.677,-0.4,-4.0,2.0,0.5,2.0%
C[n+]1ccccc1/C=N/O,x,x,1.1&-0.7,7.3&-1.2,1.3&0.5,18.2*!,u
CC(=O)Oc1ccc(/C=C2/SC(=S)N(Cc3ccccc3)C2=O)cc1,4.7,0.698,-1.3,-93.4,50.4*,3.8,10.5%
CC(O)c1nc2ccccc2n1CCCc1ccccc1 (stereo not drawn),1.1,0.645,-0.5,18.5,-1.8,-3.8,x
COc1cccc(NC(=O)CC2C(=O)NC3CCCCC3N2C(=O)c2ccc(F)cc2)c1 (stereo not drawn),-2.2,0.684,-0.2,0.6,-5.4,5.9,2.4%
CCCCc1nnc(NC(=O)COc2ccc3c(C)cc(=O)oc3c2)s1,1.8,0.716,0.4,x,x,-4.1,x
NC(=O)CC(NC(=O)c1cccc(Br)c1)c1ccc(N2CCN(c3ccc(F)cc3)CC2)c([N+](=O)[O-])c1 (stereo not drawn),0.1,0.709,0.1,-5.7,-2.1,2.8,x
COc1ccc(N2CC(NC(=O)NCCC(C)C)CC2=O)cc1 (stereo not drawn),5.6,0.715,0.2,4.0,-2.0,4.3,8.2%
COc1ccccc1CNC(=O)C1CCCN(c2cnccn2)C1 (stereo not drawn),-12.7,0.647,0.0,-1.8,-1.4,2.5,x
CC(=NOC(=O)c1ccc(F)cc1)c1nccs1,2.4,0.745,x,x,0.6,x,x
Cc1cc(NC(=O)CSc2ccc(-c3cccc([N+](=O)[O-])c3)nn2)no1,0.0,0.709,-0.7,-1.1,-2.4,-2.6,3.8%
COc1ccc(CN(C)C(=O)Cc2ccc(S(=O)(=O)N3CCOCC3)s2)cc1OC,1.9,0.665,0.0,-0.4,1.6,1.6,-9.0%
CN(Cc1ccccc1)S(=O)(=O)c1ccc2c(c1)n(C)c(=O)n2C,4.2,0.719,0.1,0.7,1.9,-4.8,-4.7%
Cc1cc(OCC(=O)c2ccc(F)cc2)ccc1N1C(=O)CCC1=O,2.5,0.785,-0.4,1.9,-0.9,4.2,-2.5%
O=C(COC(=O)c1c[nH]c2ccccc12)Nc1ccccc1,1.1,0.655,-1.2,3.0,-3.7,6.9,-7.9%
COc1ccc(-c2nnc(SC(C)C#N)o2)cc1 (stereo not drawn),4.6,0.685,0.5,-2.6,1.9,1.1,2.5%
O=C(Nc1cc2c(=O)n(-c3ccc(Oc4ccccc4)cc3)ccc2oc1=O)c1ccccc1,i,0.679,0.8,2.5,-2.6,-1.3,-6.5%
Cn1c(=O)oc2cc(S(=O)(=O)N3CCN(c4ccccc4)CC3)ccc21,1.7,0.72,0.2,-147.9,14.2,-4.2,-6.3%
CCc1ccc(NC(=O)COC(=O)C2(c3ccc(Cl)cc3)CCCC2)cc1,0.2,x,0.5,0.6,-0.7,-5.3,2.6%
CC1CCCCN1S(=O)(=O)c1ccc(C(=O)Nc2nnc(-c3cccs3)o2)cc1 (stereo not drawn),2.9,0.764,0.2,0.0,-2.2,2.3,24.0%
CC(C)N(Cc1nc(-c2ccccc2)no1)C(=O)Cc1ccccc1,4.2,0.668,-1.4,-1.8,1.0,-1.6,-2.3%
Cn1nc(OC(=O)Nc2ccc(Cl)cc2)cc1C(F)(F)F,x,x,0.5,x,x,4.8,0.8%
CN(C(=O)/C=C/c1ccc2c(c1)OCO2)c1ccccc1,x,x,-2.7,3.3,-1.9,1.7,3.4%
CCC(=O)Nc1nc2cc(OC)ccc2s1,3.8,0.665,-5.5,16.3,0.4,1.6,11.2%

Going on with the list.
Molecule,UCH37 DUB inh,Ecoli growth,A1 inh,B2AR ag,HNF4A DNA FP,LANA-H2B inh,Vif TR-FRET
COc1ccccc1C(=O)N1CCN(c2ccccn2)CC1,-3.5,0.694,-0.1,5.2,-2.3,-2.4,29.9%
O=C(COc1ccc(S(=O)(=O)N2CCCC2)cc1)NCc1ccccn1,3.1,0.631,0.5,5.2,-0.9,0.6,x
N#C/C(=C\c1c[nH]c2ccccc12)C(=O)NCC1CCCO1 (stereo not drawn),7.0,0.68,-0.5,-3.2,-0.7,-0.8,x
CC(C)NC(=O)C1CCN(C2CCN(Cc3nc(C(C)C)cs3)CC2)CC1,-0.6,0.648,-0.1,1.9,-0.9,-2.0,10.5%
Cc1ccc(S(=O)(=O)N2CCCCC2)cc1NC(=O)c1c(-c2ccccc2)noc1C,0.3,0.725,-0.1,-14.2,-1.5,-1.5,5.6%
c1ccc(-c2nnc(C(c3ccccc3)c3ccccc3)o2)cc1,0.4,0.68,0.4,10.4,0.2,2.4,-2.8%
O=C(Nc1ccc(Br)cc1)C1CCCC1,1.5,0.619,0.0,-4.9,-1.0,1.0,10.9%
N#C/C(C(=O)NCc1ccccc1)=C1\SC(CCO)C(=O)N1c1ccccc1 (stereo not drawn),0.4,0.735,1.6,-5.1,-7.3,11.5,-1.2%
c1ccc2c(c1)nnn1c3ccccc3nc21,x,x,-6.8,x,x,-2.6,-5.9%
CCN(CC)CCN1C(=O)C(O)=C(C(C)=O)C1c1ccc(OC)c(OC)c1 (stereo not drawn),7.9,0.789,0.6,-14.9,2.4,-7.1,3.9%
COc1ccc(OCCCC(=O)OCC(=O)Nc2nnc(-c3ccccc3)o2)cc1,-0.8,0.641,-4.0,-0.6,-1.5,-3.3,-9.6%

Outcome played no part in choosing rows (roughly 2.1% active in at least one column).
